From PubChem
KSHV LANA nucl = LANA-nucleosome interaction inhibition | FITC-LANA1-23 / chicken nucleosome fluorescence polarization; stronger effect = lower value | z-score (concentration not given with the values) | actives 0.3% (n = 51,000);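 active = both repeat wells score below -2 in polarization z-score versus plate sample wells, excluding overly bright wells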;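 note: 100 nL library stock added to about 30 µL; numbers are from one replicate; some results filed as inactive read as strong as hits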
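System – purified chicken nucleosomes with FITC-labelled LANA N-terminal peptide (1-23) · Amount – 240 nM purified chicken nucleosomes (480 nM peptide binding sites), final · Also added – 50 nM FITC-LANA1-23 probe · Medium – TEN-BT buffer, pH 7.5 · Incubation – compound with peptide–nucleosome mix 10–45 min at room temperature · Detection – fluorescence polarization, ex 480 nm, em 535 nm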
Ab BasE inh = BasE siderophore biosynthesis inhibition | purified BasE, fluorescence polarization binding displacement | inhibition, % (concentration not given with the values) | actives 0.1% (n = 84,000) | AID 485350;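 active = both replicates above 25% with normal brightness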;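 note: 0% = negative plate control signal and 100% = positive plate control signal; stock transfer was 100 nL into about 30 µL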
The depositor's hits bear a star; x = no result given; & = joins results of further samples. Some of the compounds tested (hit frequency here may not be typical).

Start of the data: the first four records, ahead of the listing:
Every second line gives: Ab BasE inh	KSHV LANA nucl
> CCC1(C)Cc2ccccc2-c2c1c(=O)n(-c1ccc(C)cc1)c1nncn21 (stereo not given)
  1.0	x
> CCn1c(=O)cc(OCC(=O)Nc2cccnc2)c2ccccc21
  25.4*	-0.195
> CN(C(=O)C1CCCN(S(=O)(=O)c2cccc3nsnc23)C1)c1ccc(Br)cc1 (stereo not given)
  2.1	-0.109
> CCc1c(SCC(=O)O)nc2ccccc2c1C
  -0.1	-1.7

Main list, previewed entries included:
Every second line gives: Ab BasE inh	KSHV LANA nucl
> CCC1(C)Cc2ccccc2-c2c1c(=O)n(-c1ccc(C)cc1)c1nncn21 (stereo not given)
  1.0	x
> CCn1c(=O)cc(OCC(=O)Nc2cccnc2)c2ccccc21
  25.4*	-0.195
> CN(C(=O)C1CCCN(S(=O)(=O)c2cccc3nsnc23)C1)c1ccc(Br)cc1 (stereo not given)
  2.1	-0.109
> CCc1c(SCC(=O)O)nc2ccccc2c1C
  -0.1	-1.7
> COc1ccc(Cc2nnc(SCC(N)=O)n2Cc2ccccc2)cc1
  2.2	-0.557
> CCN=C1S/C(=C\c2cn(CC(=O)Nc3cccc(C)c3)c3ccccc23)C(=O)N1CC
  -1.2	x
> COc1ccc(-c2nnc(SCC(N)=O)n2C2CCCCC2)cc1OC
  0.9	x
> CCC1(CC)Cc2ccccc2C(C2=C(O)CCCC2=O)=N1
  0.4	0.574
> CC(=O)Nc1ccc(S(=O)(=O)N2CCN(CCC#N)CC2)cc1
  -1.5	0.268
> O=C(CNc1ccccc1N1CCCCC1)Nc1ccc(S(=O)(=O)N2CCCCC2)cc1
  0.1	x

The list goes on.
Every second line gives: Ab BasE inh	KSHV LANA nucl
> CNC(=O)c1cc(-c2ccccc2)c(N2CCOCC2)s1
  0.1	0.0315
> O=C(O)Cn1nc(-c2ccccc2)oc1=O
  2.7	x
> CCc1nc2ccccc2n1C(=O)c1cc2c(C)nn(-c3ccc(Cl)cc3)c2s1
  2.3	x
> O=C1OCC2=C1C(c1ccc3c(c1)OCO3)c1c(ccc3ccccc13)N2 (stereo not given)
  1.0	-0.348
> O=C(Cn1cnc2c(cnn2-c2ccccc2)c1=O)NCc1ccco1
  -0.6	-0.249
> Cc1ccc(Cn2nnnc2CN2CCC(NC(=O)C(C)(C)C)CC2)cc1
  0.7	-0.556
> CN(C1CCCCC1)S(=O)(=O)c1ccc2ccccc2c1
  4.8	x
> COC(=O)c1sc(C(F)(F)F)c(-c2ccccc2)c1S(=O)(=O)NC(C)(C)C
  1.3	x
> CC1CCc2c(sc(NC(=O)c3ccc(Cl)s3)c2C#N)C1 (stereo not given)
  -0.3	x
> CC1C/C(=N/N=C2/NC(=O)CS2)CC(C)(C)C1 (stereo not given)
  0.5	-0.779

(continued)
Every second line gives: Ab BasE inh	KSHV LANA nucl
> CC(C)(C)C(=O)Nc1ccc(C(C)(C)C)cc1
  -1.1	x
> Clc1ccc2oc(-c3ccccc3)cc(=NCc3cccnc3)c2c1
  4.2	x
> O=C(Nc1cccc(Cl)c1)Nc1ccc(CSc2ccc(Cl)cc2)o1
  1.5	x
> CCCCNC(=O)/C=C1\Sc2ccccc2NC1=O
  -2.8	2.11
> CCN1CCN(c2cc(C)c3cc(NC(=O)CCC(=O)Nc4ccc5c(c4)OCCO5)ccc3n2)CC1
  -3.7	-0.16
> CNC(=O)Nc1ccccc1NC(=O)NC
  4.6	0.267
> O=C(O)CCN1c2cccc3cccc(c23)S1(=O)=O
  1.1	x
> Cc1ccc2nc(N3CCOCC3)c(/C=C3\SC(=S)NC3=O)c(=O)n2c1
  -51.3	6.45
> CCOc1ccc(NC(=O)CNc2ccc(S(=O)(=O)N(C)C)cc2)cc1OCC
  1.2	x
> CCOC(=O)N1CCN(C(=O)CNC2CCCC(C)C2C)CC1 (stereo not given)
  -0.6	x

(continued)
Every second line gives: Ab BasE inh	KSHV LANA nucl
> Clc1nc(-c2cccs2)nc2ccccc12
  -1.3	x
> Cc1ccc(NC(=O)N(CCc2ccncc2)C(C)C)cc1C
  -5.4	1.8
> N#CC1(NC(=O)COC(=O)C2CC3CCCC(C2)C3=O)CCCC1 (stereo not given)
  2.3	x
> Cc1csc2c(NCCCN3CCOCC3)ncnc12
  -0.7	x
> O=c1c(Cc2ccccc2)c(O)c2ccccc2n1-c1ccccc1
  -2.3	x
> COc1ccc(C2NC(c3ccc(OC)cc3)C(C)C(O)(Cc3ccccc3)C2C)cc1 (stereo not given)
  -5.3	x
> Cc1ccccc1CS(=O)(=O)Cc1ccc(C(=O)Nc2noc3ccccc23)o1
  5.9	0.421
> CCCCNc1cc(C(=O)O)cc(S(N)(=O)=O)c1Oc1ccccc1
  0.0&2.5&1.2	-0.311&-0.112&0.229&-0.69&0.25
> Cc1cc(NC(=O)Nc2ccccc2)c(C(F)(F)F)o1
  0.0	x
> CCOC(=O)C1CCCN(C(=O)CCNC(=O)Cn2ccc3ccccc3c2=O)C1 (stereo not given)
  1.4	0.0105

Next part
Every second line gives: Ab BasE inh	KSHV LANA nucl
> O=C(COC(=O)/C=C/c1ccc(Br)o1)NC1CCCCCC1
  3.7	x
> O=C(O)C1CCC(CNc2cc(=O)oc3ccccc23)CC1 (stereo not given)
  -0.2	0.691
> CCCCOc1ccccc1/C=N/N=C(N)N
  -0.9	x
> N#C/C(=C\Nc1cccc(Cl)c1)S(=O)(=O)c1ccc(Cl)cc1
  -2.1	x
> CCCN1CC=C2C(C1)C(c1ccc(C(=O)OC)cc1)C(C#N)=C(N)C2(C#N)C#N (stereo not given)
  14.3	-1.7
> CCOc1ccc(OCC)c(S(=O)(=O)N2CCN(C34CC5CC(CC(C5)C3)C4)CC2)c1
  0.7	-0.291
> CCOc1ccc2nc(NC(=O)C3=NNC(=O)CC3)sc2c1
  -1.6	x
> O=C(/C=C/c1ccccc1)OCc1ncc(-c2ccccc2)o1
  -4.3	x
> CCNC(=S)Nc1cc(OCC)c(N2CCOCC2)cc1OCC
  0.0	0.281
> O=C(O)CCCC(=O)N1CCN(Cc2ccc3c(c2)OCO3)CC1
  0.4	0.978

More compounds:
Every second line gives: Ab BasE inh	KSHV LANA nucl
> CC(Sc1nnc2c(n1)[nH]c1ccccc12)C(=O)NC(C)(C)C (stereo not given)
  3.1	0.213
> O=C(CCC1CCCCC1)Nc1c[nH]c(=O)[nH]c1=O
  -1.8	0.807
> COc1ccc(CCC(=O)c2c(O)cc(O[C@@H]3O[C@H](CO)C(O)[C@H](O)C3O[C@@H]3O[C@@H](C)[C@H](O)[C@@H](O)[C@H]3O)cc2O)cc1O (stereo not given in full)
  -1.2	0.365
> Cc1oc2c(c1C(=O)O)C(=O)c1ccccc1C2=O
  3.6	-0.339
> CC(C)CC(N)C(=O)N1CCOCCOCCOCC1 (stereo not given)
  0.3	-0.17
> Oc1c(C(c2cccnc2)N2CCOCC2)ccc2cccnc12 (stereo not given)
  1.5	x
> CSC(=NC(=O)c1c(Cl)cccc1Cl)N1CCOCC1
  1.9	-0.398
> CCOc1ccc(NC(=O)c2cc(OC)nc3ccccc23)cc1
  -5.6	1.55
> c1ccc(-c2noc(-c3ccc4c(c3)OCO4)n2)cc1
  -0.4	-0.652
> O=C(NC1CCCC1)C1CCCN(C(=O)Nc2ccccc2)C1 (stereo not given)
  0.7	0.108

Next structures follow:
Every second line gives: Ab BasE inh	KSHV LANA nucl
> CC1Cc2ccccc2N1C(=O)CSc1nnnn1C(C)C (stereo not given)
  0.8	1.14
> CCCC(CCC)C(=O)Nc1cc(C(=O)O)cc(C(=O)O)c1
  2.8	x
> Cc1cc(N2CCCC(O)C2)n2nc(C)c(-c3ccc(F)cc3)c2n1 (stereo not given)
  -3.0	1.73
> Cc1nc2ccn(Cc3ccccc3)c(=O)c2cc1C(=O)N1CCCC1
  0.0	-1.27
> O=C1c2ccccc2-c2onc3c(N4CCCCC4)cc(N4CCCCC4)c1c23
  -1.3	0.839
> CCn1c(C)nc2cc(-c3nnc4n3-c3ccccc3SC4)ccc21
  0.2	x
> O=S(=O)(CC(O)(c1ccccc1)c1ccccc1)c1cccc(C(F)(F)F)c1
  x	-0.567
> COc1cc2c(cc1OC)C(C(=O)O)CC(=O)N2 (stereo not given)
  0.4	-0.949
> Cc1nccn1CCCN
  -0.9	-0.696
> COc1cccc(OC)c1C(=O)N(C(=O)c1c(OC)cccc1OC)c1oc(-c2ccco2)c(-c2ccco2)c1C#N
  -1.2	x

Other records:
Every second line gives: Ab BasE inh	KSHV LANA nucl
> Nc1ccccc1NC(=S)Nc1ccccc1C(F)(F)F
  0.7	x
> Cc1ccc(NC(=O)COC(=O)c2ccc3c(c2)NC(=O)C2CCCN32)cc1 (stereo not given)
  -1.0	x
> Cn1c(N)nc(N)c(N)c1=O
  24.8	x
> CCOC(=O)C1CCN(Cc2coc3ccc(Cl)cc3c2=O)CC1
  -2.6	0.558
> CC(C)(C)n1nc(-c2ccc(F)cc2)c(C#N)c1N
  x	0.171
> COC(=O)C1=C(O)CC(C(=O)OC)=C(O)C1
  2.4	x
> COc1ccc(C)cc1NC(=S)NN1CCOCC1
  0.3	-1.53
> CCOC(=O)c1sc(C)c2c(=O)[nH]c(-c3ccccc3)nc12
  -1.1	x
> CC(C)n1c(SCC(=O)N2CCc3ccccc32)nc2c1c(=O)n(C)c(=O)n2C
  -1.4	1.09
> Nc1nc(SCC(=O)c2ccc(S(=O)(=O)N3CCCCC3)cc2)nc(-c2ccco2)n1
  -0.7	x

Next results:
Every second line gives: Ab BasE inh	KSHV LANA nucl
> CCCCC[C@H](O)/C=C/C=C\C=C\C=C\[C@@H](O)[C@@H](O)CCCC(=O)O
  -1.5	-0.079
> O=C(O)C1CCCCC1C(=O)N1CCCCCC1 (stereo not given)
  5.0	0.087
> O=C(Oc1ccc2c(c1)OCO2)c1ccc(CS(=O)(=O)c2ccccc2)o1
  -1.7	x
> CC(C)C(=O)c1cn(CC(=O)N2CCCC2)c2ccccc12
  0.0	-0.717
> Cc1nn(-c2nc3ccccc3[nH]2)c(N)c1-c1ccccc1
  -3.0	3.39
> O=C(CN1C(=O)COc2ccccc21)Nc1cccnc1
  0.5	-0.358
> CC1(C)Cc2cccc(OCC(=O)NCC(F)(F)F)c2O1
  1.6	x
> S=C(Nc1ccccc1)Nc1ccccc1-c1nc2ccccc2[nH]1
  5.5	x
> O=C1CCC(C(=O)OCC(=O)Nc2ccc(F)cc2)=NN1
  1.2	x
> CC(=O)OC1COC(n2nnc3c(NC(=O)C(F)(F)F)cccc32)C(OC(C)=O)C1OC(C)=O (stereo not given)
  4.1	x

Continued:
Every second line gives: Ab BasE inh	KSHV LANA nucl
> CCOC(=O)c1cc(-c2ccc(OC(F)F)cc2)nc2nc(SC)[nH]c(=O)c12
  2.0	x
> CCn1c(COC(=O)Cc2n[nH]c(=O)c3ccccc23)nc2cc(S(=O)(=O)N(C)C)ccc21
  -6.4	x
> CC(C)(C)c1ccc(NC(=O)CCSc2ccc3ccccc3n2)cc1
  3.2	x
> CCCOC(=O)c1ccc2c(c1)C(=O)NC2=O
  -1.9	1.09
> N#CC1=C(N)Oc2cc(O)ccc2C1C1CCCCC1 (stereo not given)
  1.5	x
> COC(=O)c1cc(C(O)(C(F)(F)F)C(F)(F)F)c(N)s1
  -0.2	x
> O=C(C1CCCN(S(=O)(=O)c2ccc(Br)s2)C1)N1CCN(Cc2ccc3c(c2)OCO3)CC1 (stereo not given)
  0.3	-0.01
> CCOCC(=O)Nc1nc2ccccc2s1
  0.4	0.0405
> Cc1cc(C)n2ncc(/C(N)=N/OC(=O)Nc3ccccc3)c2n1
  0.5	0.033
> O=C1c2ccccc2C(=O)c2c1oc1c3c(ccc21)OCN(C1CCCC1)C3
  5.2	x

Later entries.
Every second line gives: Ab BasE inh	KSHV LANA nucl
> COC(=O)Nc1sc2c(c1C(=O)OC)CCC2
  -1.0	1.16
> O=C(O)c1ccc(Nc2nc3ccccc3nc2NS(=O)(=O)c2cccs2)cc1
  2.4	-0.514
> C[C@@H]1CC[C@@]2(OC1)OC1CC3C4CC=C5C[C@@H](O)CC[C@]5(C)C4CC[C@]3(C)C1[C@@H]2C (stereo not given in full)
  -0.4	-0.686
> O=C1/C(=C\c2c[nH]c3ccccc23)C(c2ccccc2)Oc2ccccc21 (stereo not given)
  -2.1	x
> CN(Cc1cccc(F)c1)C(=O)COC(=O)c1ccc2c(c1)NC(=O)CS2
  -2.1	x
> O=C(C1CC1)N1CCN(c2ccc(F)cc2)CC1
  1.2	0.44
> COC(=O)/C(C#N)=C1/C=Cc2ccccc2N1
  2.8	x
> CC(=O)N1CCc2c(sc3nc(SCc4ccc(C)cc4)n(Cc4ccco4)c(=O)c23)C1
  3.1	1.14
> Cc1cccc(OCc2nnc(SCc3nc4ccccc4c(=O)n3CC#N)o2)c1
  -4.3	x
> COc1ccccc1NC(=O)NC(CC(=O)O)c1ccc(C)cc1 (stereo not given)
  3.1	x

(continued)
Every second line gives: Ab BasE inh	KSHV LANA nucl
> CC1CCc2c(sc3ncnc(NS(=O)(=O)c4cccs4)c23)C1 (stereo not given)
  2.2	x
> O=C(CSc1nnc(-c2ccccc2)o1)c1cccc(C(F)(F)F)c1
  -0.2	x
> COc1cc(C=Nc2ccc3c(c2)OCO3)ccc1OC(=O)c1ccco1
  2.2	x
> O=C(NCCc1ccccc1)c1nc2ncccn2n1
  0.2	-0.433
> COc1cccc(-n2c(CC(=O)NN)csc2=NCc2ccco2)c1
  0.3	x
> Cc1nc(NC2CC2)c2c3c(sc2n1)CCC3
  3.5	x
> CCCC(=O)Nc1c2c(nc3ccccc13)N(Cc1ccccc1)CC2
  -1.3	-0.298
> C(=N\c1nc2ccccc2s1)/c1cccnc1
  5.1	-0.45
> O=C(CC(NCCc1ccccc1)C(=O)O)Nc1ccc(O)cc1 (stereo not given)
  -0.6	-1.9
> COc1cccc(NC(=O)CN(c2cccc(OC)c2)S(C)(=O)=O)c1
  -1.3	-0.257
